Vaccinia mCherry: qHTS for Stage-Specific Inhibitors of Vaccinia Orthopoxvirus: mCherry Reporter Primary qHTS | Vaccinia virus mCherry reporter infection, fluorescence; about a quarter of the inactives have no number | Potency, µM (titrated, usually from 36.5 µM), for inactives: at the highest dose activity change, negative = inhibition, usual class: inhibitors | 310,000 tested, 0.63% active; active = well fitted inhibition curve with a large enough effect; inconclusive = small, poorly fitted or top-dose-only effect; inactive = no such curve, though single readings can be large or run the other way; tested in A549 cells; further: nearly all actives have a fitted effect of over 35% in size; inactives centre near -10
VACV Venus inh: qHTS for Stage-Specific Inhibitors of Vaccinia Orthopoxvirus: Venus Reporter Primary qHTS; Vaccinia virus Venus reporter expression, fluorescence; Potency, µM (titrated, usually from 36.5 µM), inactives show at the highest dose activity change, negative = inhibition, most hits filed as inhibitors; 330,000 tested, 0.46% active; active means well fitted inhibition curve with a large enough effect; inconclusive means small, poorly fitted or top-dose-only effect; inactive means no such curve, though single readings can be large or run the other way; tested in A549 cells; further: nearly all actives have a fitted effect of over 30% in size; inactives centre near -10
Starred values were filed as active, the others as inactive; i = inactive; u = inconclusive; x = no result given; & = joins results of further samples; [ ] = another dose, or the depositor's remark. On the % scale 0 is the no-effect control and ±100 the full control effect; potency means the concentration at half of the fitted maximal effect.

SMILES	Vaccinia mCherry	VACV Venus inh
CCOC(=O)COc1ccc2c(c1)c(C(C)=O)c(C)n2Cc1ccccc1	-1%	1%
CS(=O)(=O)N(CC(=O)Nc1ccc(F)c(F)c1)c1cccc([N+](=O)[O-])c1	-1%	-18%
Cc1cc(C)c(C#N)c(Sc2ccccc2N)n1	-24%	-12%
CC(=O)c1cccc(OCC(=O)Nc2cccc(C(=O)Nc3c(C)n(C)n(-c4ccccc4)c3=O)c2)c1	-23%	-12%
Cc1ccccc1NC(=O)C1CCCN(S(=O)(=O)c2ccc(-n3cnnn3)cc2)C1 (stereo not given)	i	-9%
CCOC(=O)C(C)n1cnc2c(nnn2-c2ccccc2)c1=O (stereo not given)	8%	2%
CCCN(C(=O)c1cc(S(=O)(=O)N2CCN(CC)CC2)ccc1Cl)C1CCS(=O)(=O)C1 (stereo not given)	-5%	-21%
CN(Cc1ccccc1F)c1nc(-c2cccs2)nc2ccccc12	i	0%
CC(C)=Nc1ccccc1C1COC(=O)C1=N (stereo not given)	-12%	-3%
COc1ccc(CCn2c(=O)[nH]c3cc(C(=O)NCCCN4CCOCC4)ccc3c2=O)cc1OC	i	-3%

The closing six compounds of the section before are carried over, then new ones follow:
SMILES	Vaccinia mCherry	VACV Venus inh
Cc1ccccc1NC(=O)C1CCCN(S(=O)(=O)c2ccc(-n3cnnn3)cc2)C1 (stereo not given)	i	-9%
CCOC(=O)C(C)n1cnc2c(nnn2-c2ccccc2)c1=O (stereo not given)	8%	2%
CCCN(C(=O)c1cc(S(=O)(=O)N2CCN(CC)CC2)ccc1Cl)C1CCS(=O)(=O)C1 (stereo not given)	-5%	-21%
CN(Cc1ccccc1F)c1nc(-c2cccs2)nc2ccccc12	i	0%
CC(C)=Nc1ccccc1C1COC(=O)C1=N (stereo not given)	-12%	-3%
COc1ccc(CCn2c(=O)[nH]c3cc(C(=O)NCCCN4CCOCC4)ccc3c2=O)cc1OC	i	-3%
NC(=O)c1ccc(-n2nnnc2Oc2ccc(Br)cc2)cc1	5%	2%
C/C(=N\NC(=O)CNc1cccc(C(F)(F)F)c1)c1cccs1	u	-11%
Cc1cccc(NC(=O)c2ccc(Cl)c(NC(=O)c3ccncc3)c2)c1C	i	-6%
O=C(CSc1nnc(Cc2ccccc2)o1)NC1CC2CCC1C2 (stereo not given)	-17%	-9%
Cc1ccc(C)c(NC(=O)COC(=O)c2cccc3c2C(=O)c2ccccc2C3=O)c1	-10%	-28%
CCc1nn(Cc2cc(C)ccc2C)c(=O)c2cc3cc(C)ccc3n12	-8%	-9%
N#Cc1ccc(OCC(=O)N/N=C(\CCC(=O)O)c2cccs2)cc1	-16%	7%
O=C(O)/C=C\C(=O)Nc1ccc(N2CCN(c3ccc(Cl)c(Cl)c3)CC2)cc1	-12%	5%
O=C(Cn1nnc(-c2ccccc2NC(=O)c2ccco2)n1)NC1CCCCC1	-14%	-3%
CCOC(=O)C1=NNC2(CC(=O)N(c3cc(C)cc(C)c3)C2=O)C1 (stereo not given)	-1%	21%
O=C1NC[C@@H](CCCCN2CCN(CC3CCCCC3)C(=O)C2=O)N(CCC2CCCCC2)C1=O	2%	4%
CCc1nc2c(OCc3cccc(Cl)c3)cccn2c1N(C)C(=O)c1ccco1	-13%	-9%
Cc1ccc(C(=O)N/C(=C/c2ccccc2)C(=O)NCC2CCCO2)cc1 (stereo not given)	i	-12%
OCCN1CCN(CCOc2ccccc2-c2ccccc2)CC1	i	-14%
COc1ccc(NS(=O)(=O)c2ccc(C)c(C(=O)N(C)Cc3ccc(OC)cc3OC)c2)cc1	-29%	-20%
CCCC12CN3CC(C)(CN(C1)C31CCCCC1)C2=O	x	-10%
C[C@@H](NC(=O)Cn1cnc2c(NCc3ccccc3)ncnc21)c1cccc2ccccc12	i	-28%
COc1ccc(NC(=O)CSc2nn3c(=O)c(C)nnc3s2)cc1	-27%	-8%
CCCn1c(Cc2ccccc2)nnc1SCC(=O)N1CCOCC1	3%	-11%
CCCCCNC(=O)C(c1ccnc2ccccc12)n1c(=O)c(-c2cc3ccccc3[nH]2)nc2ccccc21 (stereo not given)	-23%	-29%
O=C(NCc1ccccc1)c1cc(C2CCCN(C(=O)C3CC3)C2)on1 (stereo not given)	4%	-3%
C=CCNC(=O)c1ccccc1NC(=O)C1COc2ccccc2O1 (stereo not given)	i	-18%
CC(C)NC(=O)C1(C)CN(S(C)(=O)=O)CC(=O)N1CCCN1CCOCC1 (stereo not given)	2%	-8%
Cc1ccc(/C=C/c2ccc(=O)n(Cc3ccc(Cl)cc3Cl)n2)cc1	x	-6%
COc1ccc2c(c1)OC[C@H]1[C@H]2N2C(=O)c3cc(F)ccc3NC(=O)[C@@]2(C)[C@H]1c1ccccc1	u	u
CN(C)C(=O)c1ccc(-c2cc(C(F)(F)F)nn2C)s1	i	-5%
O=C(CC1C(=O)NCCN1CC1CCCCC1)NCc1ccccc1Cl (stereo not given)	-11%	-10%
Cc1oc(-c2ccccc2Cl)nc1CN1C(=O)CN=C(c2ccccc2)c2cc(Cl)ccc21	-16%	-22%
CCOC(=O)N1CCc2c(sc3c2c(=O)n(Cc2ccccc2)c(=O)n3CC(=O)Nc2ccc(C)c(C)c2)C1	-12%	-3%
O=C(Oc1ccccc1)c1cccc(N2C(=O)CCC2=O)c1	-13%	-13%
O=C(Nc1ccccc1)c1cccc(Cn2cc(C(F)(F)F)ccc2=O)c1	i	-10%
O=C(CSc1ncn[nH]1)Nc1cccc2ccccc12	-25%	-17%
Cc1cccc(Cc2c(C)nc3nc(SCc4cccc(F)c4)nn3c2C)c1	-14%	-10%
CCc1ccc2c(c1)c(N=NC1=NC(=O)CS1)c(O)n2C	x	1%
NC(=O)c1cccn(Cc2ccc(C(F)(F)F)cc2)c1=O	u	u
CCC(C)(C)NC(=O)C(c1cccc(OC)c1OC)N(CCOC)C(=O)CCC(=O)Nc1cc(C)on1 (stereo not given)	0%	-14%
O=C(NCCc1cccs1)c1ccc(Cl)cc1	-7%	-27%
CCOC(=O)c1sc(N2C(=O)C(O)=C(C(=O)c3ccco3)C2c2ccco2)nc1C (stereo not given)	60%[activator]	0%
O=C(C1CC(=O)N(c2ccc(Cl)cc2)C1)N1CCN(Cc2ccc3c(c2)OCO3)CC1 (stereo not given)	21%	-12%
Cc1ccc(SCC(=O)OCn2nnc3ccccc3c2=O)cc1C	-17%	-19%
CNC1(c2ccc(F)cc2)CCCCC1	i	-2%
CN(CCc1ccccc1)C1CCCN(S(=O)(=O)CC(F)(F)F)C1 (stereo not given)	u	u
S=c1[nH]nc(Cc2noc3ccccc23)n1-c1ccccc1	-2%	-9%
COc1ccc(C(=O)Nc2ccc3nc(SCC(=O)N(C)c4ccccc4)sc3c2)cc1	-18%	u
CC1(C)C=Cc2c(cc3occ(-c4ccc5c(c4)OCO5)c(=O)c3c2O)O1	-14%	-15%
COc1ccc(S(=O)(=O)NC(N)=NCCc2ccccc2OC)cc1	-6%	-9%
c1ccc(OCCCc2nc(-c3ccncc3)no2)cc1	-11%	-10%
N#CCc1nc2ccccc2c(=O)[nH]1	u	-12%
Clc1ccc(OCc2nc3ccccc3n2Cc2ccccc2)c(Cl)c1	-7%	2%
NC(=O)c1cc([N+](=O)[O-])ccc1NCc1cccc2ccccc12	-25%	-18%
The list continues:
SMILES	Vaccinia mCherry	VACV Venus inh
COC(=O)C1=C(c2ccc(OCc3ccccc3)cc2)C[C@@H]2CC[C@H]1N2C(=O)NCc1ccc(N(C)C)cc1	u	u
C1=C(CCNCC2CC2)CCCC1	i	-16%
CCn1c(-c2cc(Br)ccc2O)n[nH]c1=S	-10%	-8%
Cc1ccc(S(=O)(=O)NC(=O)N2CCCC2)cc1	-10%	1%
CCN(CCNC(=O)C1CCN(S(C)(=O)=O)CC1)c1ccccc1	i	-17%
COc1cccc(NC(=O)c2sc3nc(C)c(C(=O)Nc4ccc(C)cc4C)c(-c4ccccc4Cl)c3c2N)c1	-1%[7.34 µM]	0%[7.34 µM]
C=CCSc1nc(=O)n2cccc(C)c2n1	u	-17%
O=C(O)CN(CC(=O)O)CC1=CC2C(=CC1=O)Oc1cc(O)c(CN(CC(=O)O)CC(=O)O)cc1C21OC(=O)c2ccccc21 (stereo not given)	45%[activator]	i
CCCn1ncc(CN2CCN(Cc3ccsc3)C(CCO)C2)c1C (stereo not given)	-2%	-2%
Cc1nn(-c2ccc(F)cc2)c(-n2cccc2)c1C(=O)N1CCN(c2ccc(F)cc2)CC1	-12%	-7%

5 entries drawn at random from those above:
SMILES	Vaccinia mCherry	VACV Venus inh
O=C(O)CN(CC(=O)O)CC1=CC2C(=CC1=O)Oc1cc(O)c(CN(CC(=O)O)CC(=O)O)cc1C21OC(=O)c2ccccc21 (stereo not given)	45%[activator]	i
Cc1nn(-c2ccc(F)cc2)c(-n2cccc2)c1C(=O)N1CCN(c2ccc(F)cc2)CC1	-12%	-7%
C1=C(CCNCC2CC2)CCCC1	i	-16%
COC(=O)C1=C(c2ccc(OCc3ccccc3)cc2)C[C@@H]2CC[C@H]1N2C(=O)NCc1ccc(N(C)C)cc1	u	u
CCCn1ncc(CN2CCN(Cc3ccsc3)C(CCO)C2)c1C (stereo not given)	-2%	-2%

Other results.
SMILES	Vaccinia mCherry	VACV Venus inh
Cn1c(=O)c(C(=O)COc2ccc(C#N)cc2)c(N)n(Cc2ccccc2)c1=O	i	-6%
O=c1[nH]c(=O)n(C2CCCCC2)c(O)c1C1=Nc2ccccc2SC(c2ccc(Cl)cc2)C1 (stereo not given)	-9%	-1%
COCCNC(=O)C(=O)NNC(=O)c1ccccc1OC	i	-12%
CCCCn1c(SC(C)C(N)=O)nc2cc(C(=O)OC)ccc2c1=O (stereo not given)	-10%	-16%
O=C1C2C3C=CC(C3)C2C(=O)N1CCN1CCN(S(=O)(=O)c2ccc3ccccc3c2)CC1 (stereo not given)	i	-11%
CSc1[nH]c(=O)c(C(=O)O)cc1C#N	-24%	-17%
Cc1ccc(C)n1-c1c(C(=O)NCCCN2CCN(c3ccc(F)cc3)CC2)sc2ncccc12	-14%	-13%
CCc1cc2c(cc3c(=O)n(CC(=O)NC4CCC(C)CC4)ncn32)s1 (stereo not given)	-12%	-9%
CSc1ccccc1NC(=O)C(C)N1C(=O)c2ccccc2S1(=O)=O (stereo not given)	-1%	-13%
COc1cc(NC(=O)c2ccc(Cl)cc2)c(OC)cc1NC(=O)CN1CCCCC1	-26%	-29%
O=C(Cn1c(=O)oc2cc(S(=O)(=O)N3CCCCC3)ccc21)NCc1ccc(Cl)cc1	-24%	-10%
c1ccc2c(c1)Sc1cnccc1N2CC1CO1 (stereo not given)	-6%	-22%
CS(=O)(=O)N1CCN(c2ccccc2NC(=O)c2cc(Br)ccc2Cl)CC1	u	-1%
COc1ccc(S(=O)(=O)N2CCCCCC2)cc1NC(=O)CC1OC(=O)c2ccccc21 (stereo not given)	i	-19%
Cc1ccc(S(=O)(=O)/N=C(\c2ccccc2)N(C)S(=O)(=O)c2ccc(C)cc2)cc1	x	-10%
Cc1ccc(CCNC(=O)CCCn2c(=O)c3ccccc3n(Cc3ccccc3C)c2=O)cc1	-15%	-9%
O=C(c1cc(COc2ccc(F)cc2Cl)on1)N1CCCCCCC1	-1%[7.34 µM]	9%[7.34 µM]
SCc1nc2ccccc2[nH]1	-22%	-11%
Cc1cccc(NS(=O)(=O)c2ccc3[nH]c4c(c3c2)CCCCCC4)c1	-19%[7.34 µM]	-16%[7.34 µM]
c1ccc2c(c1)CCCC2C1=NCCN1 (stereo not given)	i	-15%&-9%
CC(C)C[C@@H](COCc1ccc(Cl)cc1)N1CCN(C(=O)c2ccc(Cl)cc2Cl)CCC1=O	2%	-4%
Cc1ccccc1-c1cnc(C(O)c2ccc(-c3ccccc3)cc2)[nH]1 (stereo not given)	-3%	-17%
CCOC(=O)N/N=C/c1ccc(OCCSc2ccc(Cl)cc2)c(OC)c1	-26%	-23%
CC(C)(C)OC(=O)NCCCC[C@H](NC(=O)c1nc[nH]c1C(=O)N1CCc2ccccc2C1)C(=O)OC(C)(C)C	-15%	-23%
COc1ccc(S(=O)(=O)NCc2ccc3c(c2)OCO3)cc1C(=O)O	i	-10%
CCN(c1ccccc1)S(=O)(=O)c1ccc(Cl)c(NC(=O)CN(C)Cc2cccc(F)c2)c1	-24%	-17%
C[C@H]1CN([C@@H](C)CO)C(=O)CCCn2nncc2CO[C@H]1CN(C)S(=O)(=O)c1ccc(-n2cccn2)cc1	-25%	-11%
CCc1ccccc1N=C1SCC(=O)N1C	i	-12%
Cc1ccc2c(=O)cc(C(=O)Nc3ccc(S(=O)(=O)Nc4onc(C)c4C)cc3)oc2c1C	-8%	-11%
Nc1nc(C2CCCCC2)cs1	-1%	-16%
CNc1c2cccc(C)c2nc2c(C(=O)NCCN(C)C)cccc12	2.2µM*	2.2µM*
O=C(NCCc1nc2ccccc2[nH]1)c1ccc(Cl)c([N+](=O)[O-])c1	-19%	-9%
CC(C)c1ccc(NC(=O)c2cnn(-c3ccccc3)c2NC(=O)c2ccco2)cc1	x	-38%
COc1ccccc1C=C1SC(=S)NC1=O	-2%	-12%
c1ccc(CCN2CCCCC2)cc1	-9%	-7%

Compound activity deposited in PubChem by National Center for Advancing Translational Sciences (NCATS).
